# TRPV1 potentiator – HTS Assay for Compounds that Act as Potentiators of the Vanilloid Receptor 1 | 0.02% of 320,000 active | potentiation, % at 8.33 µM | Transient receptor potential cation channel subfamily V member 1 (Homo sapiens), Q8NER1 | TRPV1-expressing cells, Fluo-8 calcium influx, capsaicin EC20 potentiation; host cell line not named in the record; control for the full effect not named in the record; active means potentiation above 80%; inconclusive means 30% to 80%; inactive means below 30%; note: 0% is about no effect
#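 TRPV1-expressing cells were cultured overnight at 35.5C and loaded with Fluo-8 calcium dye for 40 to 90 min at room temperature. After a 10 s baseline, compound was added and calcium influx was read kinetically for 3 min (ex 480/em 520 nm).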
# TRPML1 blocker – qHTS for Inhibitors of the Human Mucolipin Transient Receptor Potential 1 (TRPML1). TRPML1-inducible cells, Ca2+ dye fluorescence, FDSS; hits give low values; inhibition of EC80 agonist-evoked calcium signal. AID 624415, 2012. 0.02% of 390,000 active. activity change, negative = inhibition, % (concentration not given with the values). Mucolipin-1 (Homo sapiens), Q9GZU1; in the data active means activity change below about -50%; inconclusive means about -30% to -50%; inactive means above about -30%;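 note: stimulus is agonist 54-4 at its EC80 concentration; % is set by controls: 0 for no effect and ±100 for the full control effect; compound concentration not given in the record; the text of the record puts the active cut at -80%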
# Target sequence (Q9GZU1 whole entry, looked up): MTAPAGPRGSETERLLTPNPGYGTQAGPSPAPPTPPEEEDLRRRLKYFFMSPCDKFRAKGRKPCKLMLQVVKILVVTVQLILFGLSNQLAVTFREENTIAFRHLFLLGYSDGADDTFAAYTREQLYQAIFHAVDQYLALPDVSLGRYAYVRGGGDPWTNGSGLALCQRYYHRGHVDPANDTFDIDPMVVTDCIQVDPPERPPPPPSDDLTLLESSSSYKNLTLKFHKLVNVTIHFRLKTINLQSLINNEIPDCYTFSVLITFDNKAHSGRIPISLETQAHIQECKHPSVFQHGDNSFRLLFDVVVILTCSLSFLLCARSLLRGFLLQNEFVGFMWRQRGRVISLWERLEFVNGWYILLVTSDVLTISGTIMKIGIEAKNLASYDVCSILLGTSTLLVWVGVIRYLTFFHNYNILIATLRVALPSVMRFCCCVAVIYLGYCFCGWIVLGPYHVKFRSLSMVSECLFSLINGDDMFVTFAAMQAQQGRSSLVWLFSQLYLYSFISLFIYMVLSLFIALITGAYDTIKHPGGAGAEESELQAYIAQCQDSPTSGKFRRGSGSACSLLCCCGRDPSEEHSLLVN
#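 TRPML1-DL cells, Tet-induced overnight (~16 h, 37 °C) at 1,500 cells/well, were loaded with Ca8 no-wash dye plus quencher for 45-90 min at room temperature. Compounds were pinned during FDSS kinetic reading; agonist 54-4 at EC80 (4 uM final) then added.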
# Menin MLL FP FL – qHTS Assay for Inhibitors Targeting the Menin-MLL Interaction in MLL Related Leukemias: Competition With Fluorescein Labeled MLL-derived Peptide | FP activity change, % at 61.4 µM | 290,000 tested, under 10 active | Fluorescence polarization, fluorescein-MLL peptide displacement from menin | AID 1766, 2009; inconclusive = falling polarisation curve, or a change in total fluorescence; inactive = total fluorescence flat and polarisation flat or rising; no compound was filed as active; the % refers to the polarisation; negative = inhibition;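 note: % of control where 0% means no effect; inhibitors lower the polarisation; unlabelled MLL peptide was the positive control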
# ClpP mod – qHTS Assay for Activators of ClpP; ATP-dependent Clp protease proteolytic subunit (Bacillus subtilis (strain 168)), P80244; purified B. subtilis ClpP, FRET peptide cleavage, 20 min; Potency, µM (titrated, usually from 57.5 µM), for the others: top-dose activity change, negative = active; 1.9% of 340,000 active; AID 651965, 2013; active = well fitted falling curve with a large enough effect; inconclusive = small, poorly fitted or top-dose-only effect; inactive = no such curve, though single readings can be large or run the other way; note: potency is the fitted concentration of half-maximal effect; the source files actives as falling curves though it sought activators and does not explain the sign; nearly all actives have a fitted effect of over 65% in size; many hits overshoot -100%
# Target sequence (P80244 whole entry, looked up): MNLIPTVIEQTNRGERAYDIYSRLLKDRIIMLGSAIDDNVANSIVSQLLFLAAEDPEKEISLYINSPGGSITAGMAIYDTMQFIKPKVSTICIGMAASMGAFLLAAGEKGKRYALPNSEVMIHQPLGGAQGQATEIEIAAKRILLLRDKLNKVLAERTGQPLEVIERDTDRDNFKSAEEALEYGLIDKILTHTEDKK
#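 FRET quenching reversal measured ClpP activation: 10 microg/mL B. subtilis ClpP at pH 8 with the FRET-FV decapeptide, read at 430 nm after 320 nm excitation. The 20-min minus 0-min signal was scaled between DMSO/no-enzyme wells and ADEP (5.8 microM final).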
# Sfp inh – qHTS Assay for Inhibitors of Bacillus subtilis Sfp phosphopantetheinyl transferase (PPTase); 4'-phosphopantetheinyl transferase ffp (Bacillus subtilis), Q9F4F7; Biochemical Sfp PPTase activity, qHTS; Potency, µM, without a hit: max response, negative = inhibition, most hits filed as inhibitors; 3.5% of 310,000 active; active = well fitted inhibition curve with a large enough effect; inconclusive = small, poorly fitted or top-dose-only effect, or another doubt; inactive = no such curve, though single readings can be large or run the other way;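 note: the enzyme is Sfp with the accession as filed and its product quenches rhodamine fluorescence; potency is the fitted concentration of half-maximal effect; 0% = enzyme reaction without inhibitor and -100% = no enzyme wells; top concentration of the series not given in the record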
#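 Buffer: 50 mM Hepes-Na pH 7.6, 10 mM MgCl2, 0.01% Nonidet P-40, 0.01% BSA. Enzyme 15 nM, pre-exposed to compound 15 min; substrates then added and fluorescence change tracked over 30 min.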
# gsp ag – qHTS for Agonist of gsp, the Etiologic Mutation Responsible for Fibrous Dysplasia/McCune-Albright Syndrome: qHTS | gsp mutant cells, cAMP HTRF, 30 min; control for the full effect not named in the record | Potency, µM (highest dose often 76.9 µM), without a hit: at the highest dose activation (cAMP increase), actives largely listed as activators | 0.13% of 340,000 active; active = well fitted activation curve with a large enough effect; inconclusive = small, poorly fitted or top-dose-only effect, or another doubt; inactive = no such curve, though single readings can be large or run the other way; cell line not stated here;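 note: phosphodiesterase inhibitor Ro 20-1724 added with compounds to block cAMP breakdown; potency is the fitted concentration of half-maximal effect; nearly all actives have a fitted effect of over 60% in size; about a fifth of the inactives were tested at one dose only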
#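 Cells in DMEM/10% FBS with G418 were pretreated with compounds in DMSO plus […] (300 uM stock) for 30 min at 37C. cAMP was measured by HTRF (cAMP-d2 plus anti-cAMP antibody-K) after 30 min at room temperature.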
# gsp antag – qHTS for Antagonists of gsp, the Etiologic Mutation Responsible for Fibrous Dysplasia/McCune-Albright Syndrome: qHTS; gsp-mutant cells, cAMP HTRF, 30 min; control for the full effect not named in the record; Potency, µM (titrated, usually from 76.9 µM), without a hit: top-dose activity change, negative = inhibition, actives largely listed as inhibitors; 0.4% of 340,000 active; active = falling curve of any shape with a large fitted effect; inconclusive = falling curve, mostly with a smaller effect; inactive = flat or rising curve; cell line not stated here;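 note: intracellular cAMP measured with PDE inhibitor Ro 20-1724 present during compound exposure; potency is the fitted concentration of half-maximal effect; % is set by controls: 0 for no effect and ±100 for the full control effect; nearly all actives have a fitted effect of over 65% in size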
#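 Cells, 2000/well, grown 16–24 h in DMEM 10% FBS with 0.5 mg/ml G418, then compounds plus […] (300 uM addition stock), 30 min at 37C. cAMP read by HTRF (cAMP-d2 and anti-cAMP antibody-K in lysis buffer) after 30 min RT.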
# * hit, by the source's call; ? = inconclusive; . = no result given; & = joins results of further samples; [ ] = another dose, or the depositor's remark.
SMILES,TRPV1 potentiator,TRPML1 blocker,Menin MLL FP FL,ClpP mod,Sfp inh,gsp ag,gsp antag
COc1cc(/C=C/CNC[C@H]2O[C@@H](n3cnc(C(N)=O)n3)[C@H](O)[C@@H]2O)ccc1O,.,-8,.,-1.5%,.,.,-10%
COc1ccc(NC(=O)c2ccc(Cl)nc2)cc1S(=O)(=O)N1CCCCC1,-23,25,-0.6,.,21%,-1%[15.4 µM],32µM*
c1ccc2c(c1)-c1nc3ccccc3cc1C2N1CCCCC1 (stereo not given),.,-3,.,0.9%,.,0%,.
COc1ccc(CN(C(=S)Nc2ccccc2)C2CC(=O)N(c3ccc(F)cc3)C2=O)cc1 (stereo not given),-8,1,1.2,-21%,11%,-12%,?
O=C(c1ccc([N+](=O)[O-])cc1)N(Cc1ccc(Cl)cc1)N1C(=O)CCCC1=O,8,36,5.0,-2.4%,14%,?,9%
Cc1nn(CCCC(=O)NC(C)c2ccccc2)c(=O)c2nn(-c3ccccc3)c(C)c12 (stereo not given),2,13,-1.8,-11%,12%,5%,-13%
O=C(O)/C=C/C(=O)Nc1ccc2nccnc2c1,-2,-8,-2.2,.,1%,-8%[15.4 µM],2%
COC(CNC(=O)c1ccc2c(=O)n(Cc3ccc(Cl)cc3)c(=S)[nH]c2c1)OC,3,-2,-0.9,-0.2%,1%,4%,5%
COc1cc(NC(=O)CSc2nccc(=O)[nH]2)c(C)cc1[N+](=O)[O-],-7,10,-5.3,.,13%,1%[15.4 µM],-7%
COc1cc(C2C(C#N)=C(N)N(c3cccnc3)C3=C2C(=O)CCC3)ccc1O (stereo not given),5,11,?,1.1%,-5%,-3%,-12%
CN1C[C@@H]2[C@@H]3C(=O)N(Cc4ccccc4)C(=O)[C@@H]3[C@](Cc3ccccc3)(C1=O)N2C(=O)c1ccccc1,.,20,.,-0.5%,.,.,7%
COc1ccc2c(c1)C1=C(CC2)C(c2ccc(C)cc2)NC(=S)N1 (stereo not given),15,32,-2.1,-7.8%,4%,3%,-15%
CC1CCN(S(=O)(=O)c2ccc(C(=O)Nc3nnc(-c4ccccn4)o3)cc2)CC1,8,6,2.4,.,-1%,-49%[inhibitor],-15%
COC(=O)[C@H](CO)NS(=O)(=O)c1ccc(C)cc1,.,2,.,0.7%,.,.,7%
Cc1ccc(NC(=O)CN(C)C(=O)COC(=O)c2nccnc2N)cc1,-9,-3,.,4.5%,.,4%,20%
CC(C(=O)O)c1n[nH]c(=O)c2ccccc12 (stereo not given),6,1,3.9,-5.7%,5%,12%,5%
CCOC(=O)c1c(N=CN(C)C)c(C#N)c2n1CCCC2,-1,4,7.9,-0.9%,17%,2%,-8%
CCOC(=O)c1cccc(NC(=O)CCS(=O)(=O)c2ccc(Br)s2)c1,-9,-8&14,0.6,2.0%&1.6%,-11%,-13%,-6%
Cc1cc(C)c(NC(=O)CNC(=O)c2cc(C3CC3)nc3c2cnn3C(C)C)c(C)c1,.,-23,.,3.7%,.,-17%,.
O=C(c1ccccc1)[C@@H]1[C@@H](C(=O)c2ccc(F)cc2)[C@@]2(C(=O)Nc3ccccc32)[C@H]2c3ccccc3C=CN12,-11,-9,10,-0.1%,-17%,-26%[15.4 µM],-4%
CC(C)c1ccc(NC(=O)COC(=O)C2=COCCO2)cc1,-18,8,3.7,0.9%,-5%,23%,4%
O=C(CN1CCN(CN2C(=O)NC3(CCCCCC3)C2=O)CC1)Nc1ccc(F)cc1,7,-16,.,0.3%,.,3%,11%
O=C(O)/C=C/C(=O)N1CCN(c2cccc(Cl)c2)CC1,13,-4,-5.3,-3.0%,5%,-51%[inhibitor],7%
Cc1cc(C)c(S(=O)(=O)N2CCCC2)c(C)c1,17,4,-2.2,.,4%,-121%[inhibitor],-9%
COc1cccc(NC(=O)c2ccccc2N2C(=O)C3C4C=CC(C5CC45)C3C2=O)c1 (stereo not given),13,28,-3.8,-2.1%,2%,21%,6%
CCc1ccc(NC(=S)N(CCN2CCCCC2)Cc2ccco2)cc1,3,-8,.,0.9%,13%,-27%[15.4 µM],0%
COC(=O)c1oc(-c2ccccc2)nc1C,-2,-14,5.2,-4.2%,11%,-16%,-2%
COc1cccc2cc(-c3nc4ccccc4o3)c(=O)oc12,-3,-9,0.1,.,3%,-17%[15.4 µM],-15%
COc1ccc(CN(C(=O)CSc2nnc(-c3c[nH]c4ccccc34)o2)c2ccc(F)cc2)cc1OC,2,-7,-0.6,-8.7%,0%,?,?
COc1ccc2cc(C(=O)NCCCN3CCCC3=O)[nH]c2c1,-10,-11,0.4,4.1%,6%,4%,-4%
COc1ccc(-c2cc(=O)c3ccccc3o2)cc1,-18,0,3.8&-0.1,4.2%,-5%&2%,24%,-16%
CC1CN(C(=O)COC(=O)c2cc(Cl)ccc2Cl)CC(C)O1 (stereo not given),-8,-6,1.3,.,14%,2%[15.4 µM],.
COc1cccc(CNC(=O)N2CCN(c3ccccc3C)CC2)c1,-42,-7,3.8,.,-1%,23%,-7%
CCN(CC(=O)Nc1ccc(NC(C)=O)cc1)Cc1c(O)ccc2cc(Br)ccc12,6,15,-0.2,.,-17%,?,1%
O=c1[nH]n(Cc2ccccc2)c2ccccc12,-4,1,-0.8,.,16%,11%,5%
CCn1c(SCC(=O)Nc2cc(C)on2)nc2c([nH]c3ccccc32)c1=O,-13,-6,.,2.1%,2%,-6%[15.4 µM],11%
COc1ccc(C2C(C#N)=C(SCC(=O)Nc3ccc(C)cc3)NC3=C2C(=O)CC(C)(C)C3)cc1 (stereo not given),1,-3,0.9,22µM*,?,13%,-16%
O=C(NCC(=O)N1CCN(c2ccccn2)CC1)c1ccc(Br)o1,15,-3,.,3.6%,13%,23%,-7%
NS(=O)(=O)c1ccc(CCNC(=O)CNS(=O)(=O)c2cccc(Br)c2)cc1,-11,-16,4.1,-0.6%,-14%,-1%[15.4 µM],0%
O=C(CSc1ccccn1)C12CC3CC(CC(C3)C1)C2,26,12,0.4,.,1%,4%[15.4 µM],-8%
CC(C)Cc1nc(SCC(=O)N2CCCCC2)c2c(=O)n(C)c(=O)n(C)c2n1,-19,-12,.,1.3%,-5%,?,?
COc1ccc(CN(C)C(=O)CCN2C(=O)c3ccccc3C2=O)c(OC)c1OC,1,-12,.,.,14%,0%,11%
Cc1nn(-c2ccccc2)c2sc(C(=O)NNC(=O)COc3cccc4ccccc34)cc12,7,31,2.2,-18%,-26%,-4%,14%
C/C(=N\NC(=S)NC1CCCCC1)c1cccc(C(F)(F)F)c1,-7,1,1.2,-2.9%,19%,-22%,7%
CCOc1ccc(NC(=O)c2cccc3c2C(=O)N(Cc2cccnc2)C3)cc1,?,3,-3.4,-0.6%,2%,-23%,-29%

# Record cards (already shown). Values in the order: TRPV1 potentiator | TRPML1 blocker | Menin MLL FP FL | ClpP mod | Sfp inh | gsp ag | gsp antag
# COc1ccc(C2C(C#N)=C(SCC(=O)Nc3ccc(C)cc3)NC3=C2C(=O)CC(C)(C)C3)cc1 (stereo not given) is listed with 1 | -3 | 0.9 | 22µM* | ? | 13% | -16%
# C/C(=N\NC(=S)NC1CCCCC1)c1cccc(C(F)(F)F)c1 is listed with -7 | 1 | 1.2 | -2.9% | 19% | -22% | 7%
# CCN(CC(=O)Nc1ccc(NC(C)=O)cc1)Cc1c(O)ccc2cc(Br)ccc12 is listed with 6 | 15 | -0.2 | . | -17% | ? | 1%
# Cc1nn(-c2ccccc2)c2sc(C(=O)NNC(=O)COc3cccc4ccccc34)cc12 is listed with 7 | 31 | 2.2 | -18% | -26% | -4% | 14%
# O=c1[nH]n(Cc2ccccc2)c2ccccc12 is listed with -4 | 1 | -0.8 | . | 16% | 11% | 5%

# Additional entries
SMILES,TRPV1 potentiator,TRPML1 blocker,Menin MLL FP FL,ClpP mod,Sfp inh,gsp ag,gsp antag
CC(=O)c1ccc(S(=O)(=O)N2CCN(C(=O)c3ccc(-n4nc(C)c(Cl)c4C)cc3)CC2)cc1,2,9,.,-3.5%,.,1%,-18%
O=S(=O)(N/N=C\c1ccc2c(c1)OCO2)c1ccc(Cl)cc1,-9,28,1.2,1.1%,19%,-11%,-4%
Cc1ccc(NS(=O)(=O)c2cc(NC(=O)c3ccc4c(c3)NC(=O)CS4)ccc2Cl)c(C)c1,7,14,0.0,-12%,16µM*,26%,-8%
Cc1ccc(S(=O)(=O)c2c(C)nn(-c3ccccc3)c2OC(=O)c2ccco2)cc1,19,0,-2.3,-1.5%,1%,17%,-6%
CN(C)/C=C(\C#N)C(=O)N/N=C(\CC(=O)C(F)(F)F)c1ccco1,4,26,0.9,.,5%,22%[15.4 µM],-27%
COC(=O)c1cc(S(=O)(=O)N(C)c2ccc(C)c(C)c2)c[nH]1,-3,-11,.,4.7%,8%,0%,-1%
Cc1ccc(OCC(=O)N/N=C/c2ccco2)cc1,-7,19,5.2,0.8%,1%,2%,4%
Cc1ccc(-n2c(C)c3c(C)nnc(C)c3c2C)cc1,1,.,-0.7,.,-3%,.,.
CCc1nc2sc(C(=O)O)c(N)c2c2c1CCCC2,.,62,8.5,.,10%,-7%[15.4 µM],-11%
CCCCc1nnc(NC(=O)C2CCCO2)s1 (stereo not given),3,-3,0.8,-5.3%,10%,?,9%

# Screening results deposited in PubChem BioAssay by National Center for Advancing Translational Sciences (NCATS).
